# HPGD inh – HPGD (human) dehydrogenase inhibition; P15428; Potency, µM, for the others: at the highest dose activity change, negative = inhibition, usual class: inhibitors; purified HPGD, NADH fluorescence kinetic, PGE2 substrate; 4.3% of 150,000 active; active = well fitted inhibition curve with a large enough effect (not every such curve was filed as active); inconclusive = small, poorly fitted or top-dose-only effect, or another doubt; inactive = no such curve, though single readings can be large or run the other way;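 note: top concentration of the series not given in the record; plate controls included wells without enzyme; inactives centre near -10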
# Target sequence (P15428 whole entry, looked up): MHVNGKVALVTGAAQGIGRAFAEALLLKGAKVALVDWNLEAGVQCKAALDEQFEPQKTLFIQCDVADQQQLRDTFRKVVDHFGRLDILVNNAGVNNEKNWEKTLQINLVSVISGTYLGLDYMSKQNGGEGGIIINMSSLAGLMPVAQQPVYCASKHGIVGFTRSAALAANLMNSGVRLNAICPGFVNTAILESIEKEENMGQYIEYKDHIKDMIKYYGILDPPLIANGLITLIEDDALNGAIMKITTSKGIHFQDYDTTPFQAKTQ
#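 20 nM HPGD preincubated 15 min at room temperature with compound in 50 mM Tris-HCl pH 8, 0.01% Tween 20. Started with 1 mM NAD+ and 30 uM prostaglandin E2; NADH fluorescence (360/450 nm) read 5 times over 30-s intervals, last minus first.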
# Active calls of the source: *; u = inconclusive; & = joins results of further samples. % is set by controls: 0 for no effect and ±100 for the full control effect; potency is the fitted concentration of half-maximal effect. The list is partial, so the mix of outcomes need not match the whole.
HPGD inh,compound
-7%,O=C(O)C1C2CCC(O2)C1C(=O)NCCC1=CCCCC1 (stereo not drawn)
-24%,CCCc1[nH]n(-c2ccc([N+](=O)[O-])cc2)c(=O)c1C=NCCc1c[nH]c2ccccc12
-9%,Cc1cc(OCC(O)CN2CCN(CCO)CC2)ccc1C(C)C (stereo not drawn)
20µM*,CC1CCCC(C)N1C(=O)Cc1ccccc1 (stereo not drawn)
-1%,CC1(C)CC(C)(O)N(Cc2ccccc2)C(=S)N1 (stereo not drawn)
-8%,O=C(/C=C/c1ccccc1)NC(NC(=S)Nc1cc(Cl)ccc1Cl)C(Cl)(Cl)Cl (stereo not drawn)
u,COc1cc(C2C=C(Nc3ccccc3)C(=O)N2c2ccccc2)ccc1O (stereo not drawn)
-4%,COc1ccccc1NC(=O)CSc1nc2nc(C)cc(C)c2c(=O)[nH]1
-6%,CCCCN(C)CCCNC(=O)c1ccc(N2CCCC2=O)cc1
u,COc1cc(OC)cc(C(=O)N[C@H](C(=O)OCc2cc(=O)oc3cc(C)ccc23)C(C)C)c1
-17%,CC(C)CCn1c(O)c(N=NC(=O)c2ccco2)c2ccccc21
-7%,COc1ccc(-c2nnc(SCCOc3cccc(C)c3)n2N)cc1
-8%,CN(Cc1ccccc1)C(=O)Cn1cccc1C(=O)c1ccccc1
-9%,CCOC(=O)c1c(-c2ccccc2)csc1NC(=S)NC(=O)c1ccccc1
-15%,CCCCNC(=O)Nc1cc(C)on1
u,Cc1noc(C)c1COC(=O)c1ccc(-c2nc3ccccc3s2)s1
-7%,COCCNC(=O)C1CC(=O)N(C2CCCC2)C1 (stereo not drawn)
u,Cc1cc(C)cc(CSc2nnc(C)c(=O)[nH]2)c1
-1%,COc1ccc(N/C(C)=C2/C(=O)C(=O)N(CCO)C2c2ccc(Br)cc2)cc1 (stereo not drawn)
u,O=C(/C=C/Nc1ccccc1C(=O)O)c1cccs1
-17%,Cc1ccccc1-c1nc(S(=O)(=O)c2ccc(Br)cc2)c(NCc2cccnc2)o1
-2%,COc1ccc(CCn2c(C)cc(C(=O)CSc3nnnn3-c3ccccc3)c2C)cc1OC
-4%,COC(=O)CSc1nnc([C@H](CC(C)C)NC(=O)OC(C)(C)C)o1
-7%,CCOC(=O)c1c(CN2CCOCC2)n(-c2ccccc2)c2cc(Br)c(O)cc12
-4%,CCN(CC)CCCNC(=O)c1c(O)c2c([nH]c1=O)CCCC2
-29%,c1ccc(-c2cn3c4c(sc3n2)CCCC4)cc1
-2%,COc1cccc(C(=O)N/N=c2\sc3ccccc3n2C)c1
-16%,Cc1nnc(Nc2ccc3c(c2)OCO3)c2ccccc12
-13%,COC(=O)c1ccccc1NC(=O)CN1C(=O)CSC1=O
-9%,CN(C)CCCNCCCN

# Of the compounds above, these contain a halogen.
HPGD inh,compound
-8%,O=C(/C=C/c1ccccc1)NC(NC(=S)Nc1cc(Cl)ccc1Cl)C(Cl)(Cl)Cl (stereo not drawn)
-1%,COc1ccc(N/C(C)=C2/C(=O)C(=O)N(CCO)C2c2ccc(Br)cc2)cc1 (stereo not drawn)
-17%,Cc1ccccc1-c1nc(S(=O)(=O)c2ccc(Br)cc2)c(NCc2cccnc2)o1
-7%,CCOC(=O)c1c(CN2CCOCC2)n(-c2ccccc2)c2cc(Br)c(O)cc12

# (further entries)
HPGD inh,compound
-26%,Cc1nc(S/C(=C/c2ccc(-c3cccc(Cl)c3)o2)C(=O)O)n[nH]1
-12%,COC(=O)[C@@]1(Cc2ccc(F)cc2)[C@H]2c3cc(C(=O)N(C)C)n(Cc4cccc5ccccc45)c3C[C@H]2CN1C(=O)c1ccccc1
u,COc1cc(-c2nnc3sc(C4CCCCC4)nn23)cc(OC)c1OC
-16%,c1cc(C(c2nnnn2C2CCCCC2)N2CCN3CCCC3C2)ccn1 (stereo not drawn)
-7%,CCCCn1c(SCC(=O)c2cc(OC)ccc2OC)nc2cc(S(N)(=O)=O)ccc21
-14%,COc1ccc(NC(=O)c2ccc3c(c2)C(=O)N(Cc2cccnc2)C3=O)c(OC)c1
-5%,CC1CCCCC12NC(=O)N(CC(=O)Nc1ccc(S(=O)(=O)N3CCOCC3)cc1)C2=O (stereo not drawn)
-26%,COc1ccc(Cl)cc1C(=O)CSc1nnnn1C1CCCCC1
-6%,N#CC12CCCCC1CC1CCCCC1(C#N)N2Cc1cccnc1 (stereo not drawn)
-18%,c1ccc(-c2ccn3nnnc3n2)cc1
u,CCOc1ccc(-c2nnc(-c3snc(-c4ccc(F)cc4)c3N=CN(C)C)o2)cc1
-12%,Cc1cc(=O)[nH]c(COc2ccccc2)n1
u,c1ccc(Cn2nnc3c(N4CCc5ccccc54)ncnc32)cc1
-4%,O=C(Nc1ccccc1)N1CC[C@@]2(CCCN(C(=O)c3ccncc3)C2)C1
-10%,CC1(C)O[C@@H]2C[C@H]3[C@@H]4CCC5=CC(=O)C=C[C@]5(C)[C@@]4(F)[C@@H](O)C[C@]3(C)[C@]2(C(=O)CO)O1
u,O=C(c1ccco1)N1CCN(S(=O)(=O)c2ccc(Br)s2)CC1
2%,COCCNCCOCCOc1cccc(OC)c1
-6%,O=C(CCNS(=O)(=O)c1cccs1)Nc1ccccc1F
-1%,CCOC(=O)C(NC(=O)CC)(Nc1sc(C)c(CC)c1C#N)C(F)(F)F (stereo not drawn)
1%,Cc1ccc(CNC(=O)C2CCCN(S(=O)(=O)c3cccnc3)C2)cc1 (stereo not drawn)
-16%,COCc1cc(=O)n2[nH]c(SCc3ccccc3)nc2n1
-10%,COCCNC(=O)C(c1ccc(C)o1)N(Cc1ccccc1)C(=O)Cn1nnc2ccccc21 (stereo not drawn)
10µM*,COc1ccc(CNc2nc(SCC(=O)NCc3ccco3)nc3ccccc23)cc1
u,Cc1cc(=O)c2cc(Cl)ccc2[nH]1
-17%,Cc1cc(C(=O)OCC(=O)Nc2sc3c(c2C#N)CCC(C)C3)c2ccccc2n1 (stereo not drawn)
-7%,COc1cc(/C=C2\CC/C(=C\c3cc(OC)c(OC)c(OC)c3)C2=O)cc(OC)c1OC
13µM*,Cc1ccc(/C=N/n2c(-c3ccco3)n[nH]c2=S)s1
u,Cc1cc(C)n(Cc2ccc(Cl)cc2Cl)c(=O)c1S(=O)(=O)c1ccccc1
-4%,Cc1cccc(COc2ncnc3nc[nH]c23)c1
8.9µM*,CCN(CC)c1ccc(SS(=O)(=O)O)cc1

HPGD inh,compound
22µM*,O=C(NC(=S)Nc1ccc(N2CCOCC2)c(Cl)c1)c1cncc(Br)c1
-19%,COC(=O)c1ccc(C(NC(=O)OCc2ccccc2)/C(=C/[C@@H](C)C(=O)NC2CCCCC2)c2cccnc2)cc1 (stereo partly drawn)
-22%,N#Cc1cn(CCOc2ccccc2F)c2ccccc12
0%,Cc1ccc(NC(=O)c2cc(Cl)nc3ccccc23)cc1
4%,O=C(CSCc1cnn(-c2ccccc2)c1-n1cccc1)NCCN1CCOCC1
-14%,Cc1cc(OCC(=O)O/N=C(\N)c2ccccc2)cc(C)c1Cl
-4%,CCC1=C(OC(=O)N(CC)CC)N2C(=O)OC(=NCC3CC3)[C@]2(Cc2ccccc2)[C@H]2C1=CC[C@H]1C(=O)N(CC)C(=O)[C@H]12
-16%,COC(=O)c1ccccc1NC(=O)Cn1cnc2ccc(S(=O)(=O)N3CCC(C)CC3)cc2c1=O
-6%,COC(=O)c1ccc(CN2[C@H](C(=O)OC)C[C@@]3(O)[C@@H](O)[C@@H](O)[C@@H](O)C[C@@H]23)cc1
-10%,CC(=O)Nc1ccc(S(=O)(=O)/N=C2\SCCN2S(=O)(=O)c2ccc(NC(C)=O)cc2)cc1
-6%,Cc1cc(C)nc(SC(C)C(=O)O)n1 (stereo not drawn)
-3%,Cc1ccc(S(=O)(=O)N(CC(=O)N/N=C/c2cccc(C)c2)c2cccc3cccnc23)cc1
-3%,Cc1ccc(C(c2sc3nc(C)nn3c2O)N2CCN(c3ccc(F)cc3)CC2)cc1 (stereo not drawn)
0%,Cn1ncc(Br)c1C(=O)Nc1ccc(F)cc1F
-18%,CC1(C)C(=O)C(c2ccccc2)=C2CN3C(=O)N(CCc4ccccc4)C(=O)C3(Cc3ccc(C(F)(F)F)cc3)C=C21 (stereo not drawn)
-5%,O=C(O)C1Cc2ccccc2CN1C(=O)c1ccccc1 (stereo not drawn)
-7%,CCCC(C)NC(=O)c1nc(-c2ccccc2)n(-c2ccccc2)n1 (stereo not drawn)
-17%,CC(=O)c1ccc(NC(=O)CSC(C)C)cc1
-12%,CC(=O)OC(/C(O)=C(\C#N)c1nc2ccccc2[nH]1)c1ccccc1 (stereo not drawn)
-16%,Nc1c(C(=O)c2ccccc2)oc2ccc(Br)cc12
2%,O=C(O)CC(NCc1ccco1)C(=O)OCCc1ccccc1 (stereo not drawn)
-11%,COCCCNCCCOc1ccc(C)cc1Br
-16%,COc1ccc(C2CC(=O)c3c(C)nc(N4CCN(Cc5ccccc5)CC4)nc3C2)cc1OC (stereo not drawn)
u,CCC(C)C(NC(=O)c1ccccc1NC(=O)c1ccc(OC)cc1)C(=O)NCc1ccco1 (stereo not drawn)
-20%,CN(Cc1ccccc1)C(=O)c1ccc(Cl)c([N+](=O)[O-])c1
-1%,NC(=O)C1CCN(CC(=O)NCc2ccccc2)CC1
-6%,Nc1ncnc2c1nc(Br)n2C1O[C@H]2COP(=O)(O)O[C@@H]2C1O (stereo partly drawn)
-11%,O=C(NC1CCCCCC1)c1cccnc1Sc1ccccc1
-8%,COc1ccc(N/C=C(\C#N)c2nc3ccccc3n2C)c(OC)c1
-9%,Cc1nc(NS(=O)(=O)c2ccc(Br)cc2)c2c3c(sc2n1)CCC3

HPGD inh,compound
-13%,CCOc1ccc2nc(NC3=NC(C)(C)C=C(C)N3)nc(C)c2c1
-23%,COc1ccc(S(=O)(=O)NCCSc2ccc(C)cc2)cc1OC
-15%,CCN(c1ccccc1)S(=O)(=O)c1ccc(F)c(C(=O)O)c1
-9%,O=C(COC(=O)C1CCC1)Nc1ccc(OC(F)F)cc1
u,COCCSc1nc2sc3c(c2c(=O)n1-c1ccccc1)CCN(C)C3
16µM*,CN(C)C(=O)c1ccc(-c2nc(NCc3cccs3)c3ccccc3n2)cc1
u,O=C(N/N=C/c1ccncc1)c1cc2c(ccc3ccccc32)o1
-7%,CCOc1cc(S(=O)(=O)Nc2ccccc2CC)ccc1Cl
-15%,C=C(C)Cn1c(-c2ccccc2)nc2ccccc21
3%,CCn1c(CCNC(=O)c2ccc(OC)cc2)nnc1SCc1ccc(Cl)c(Cl)c1
-2%,C/C(=N\NC(=O)CSCc1ccccc1Cl)c1cccc(NC(=O)c2ccccc2)c1
-3%,Cc1cc(C)n2nc(SCC(=O)N/N=C/c3ccc(F)cc3)nc2n1
-2%&-15%,Nc1ccccc1C(=O)CC(N)C(=O)O (stereo not drawn)
u,Cc1cccc(-[n+]2c(C)cc(C)c3c(=O)[nH]c(=O)[nH]c32)c1
-28%,N=c1nc(N)nc2n1NC(c1ccc(F)cc1)=CS2
-22%,Cc1ccccc1NC(=O)c1cccc(C(F)(F)F)c1
-25%,CC1(C)C(=O)C2(C(=O)NCc3ccccc3)CCC1C2 (stereo not drawn)
-2%,CCOC(=O)c1cc2n(n1)C(C(F)(F)C(F)(F)F)CC(C)N2 (stereo not drawn)
-13%,O=C(CCS(=O)(=O)Cc1ccc(Cl)cc1)NCCCN1CCN(c2ccccc2F)CC1
-5%,Cc1cc(NC(=O)CN2C(=O)S/C(=C\c3ccccc3)C2=O)no1
u,C=CCOC(=O)C1=C(C)NC(SCC(N)=O)=C(C#N)C1c1cccs1 (stereo not drawn)
-12%,COc1cc(C2C(C(=O)OCCC#N)=C(C)NC3=C2S(=O)(=O)c2ccccc23)cc(OC)c1OC (stereo not drawn)
-16%,CN(C)/C=N/C(=S)Nc1ccccc1F
-16%,O=C(NCc1ccccc1)c1cc(-c2cccs2)on1
-20%,Cc1cc(/C=C(/C#N)C(=O)O)c(C)n1CCC(C)C
-10%,COc1ccccc1N1CCN(C(=O)CSc2nc(C)c(Cc3ccccc3)c(=O)[nH]2)CC1
u,Cc1nc2ccccn2c1-c1nnco1
-24%,c1ccc(-c2cc(-c3nnc4sc(-c5ccccn5)nn34)[nH]n2)cc1
-2%,CON(C)c1nc(OCCNC(=O)OCc2ccc(Cl)cc2C)nc(N(C)C)n1
-14%,N#Cc1c(Nc2ccccc2)c(C=NCCN2CCOCC2)c[nH]c1=O

HPGD inh,compound
-6%,CCOc1ccc(NC(=O)c2ccc(C#CC(C)(C)O)cc2)cc1
-4%,O=C(NCC(=O)N(CC1CCCO1)C(C(=O)NC1CCCC1)c1ccc(F)cc1)c1ccco1 (stereo not drawn)
-19%,O=C(NCc1ccc2c(c1)OCO2)C1CCN(c2ncccn2)CC1
-10%,CN1CCN(CP(=O)(N2CCOCC2)N2CCOCC2)CC1
-14%,Cc1cc(C)n2[nH]c(=O)c(N=Nc3ccccc3)c2n1

# Part of the list above, with bars between the fields.
SMILES | HPGD inh
N=c1nc(N)nc2n1NC(c1ccc(F)cc1)=CS2 | -28%
Cc1ccccc1NC(=O)c1cccc(C(F)(F)F)c1 | -22%
CC1(C)C(=O)C2(C(=O)NCc3ccccc3)CCC1C2 (stereo not drawn) | -25%
CCOC(=O)c1cc2n(n1)C(C(F)(F)C(F)(F)F)CC(C)N2 (stereo not drawn) | -2%
O=C(CCS(=O)(=O)Cc1ccc(Cl)cc1)NCCCN1CCN(c2ccccc2F)CC1 | -13%
Cc1cc(NC(=O)CN2C(=O)S/C(=C\c3ccccc3)C2=O)no1 | -5%
C=CCOC(=O)C1=C(C)NC(SCC(N)=O)=C(C#N)C1c1cccs1 (stereo not drawn) | u

# Screens from PubChem.
